Assay outcomes as filed in PubChem.
HNF4A DNA FP: change in binding of human HNF4 alpha to DNA; P41235; HNF4a-FITC DNA binding, fluorescence polarization, 1 h; activity change, % at 10 µM; actives 0.3% (n = 360,000); AID 1224865; in the data active = activity change above about 30%, passing the limit was not always enough;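 note: controls were the assay level and a saturating level of protein; the project sought stronger binding though the title names inhibitors; some compounds called inactive have numbers as strong as hits; positive values seem to mean higher polarization but the record does not say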
Target sequence (P41235 whole entry, looked up): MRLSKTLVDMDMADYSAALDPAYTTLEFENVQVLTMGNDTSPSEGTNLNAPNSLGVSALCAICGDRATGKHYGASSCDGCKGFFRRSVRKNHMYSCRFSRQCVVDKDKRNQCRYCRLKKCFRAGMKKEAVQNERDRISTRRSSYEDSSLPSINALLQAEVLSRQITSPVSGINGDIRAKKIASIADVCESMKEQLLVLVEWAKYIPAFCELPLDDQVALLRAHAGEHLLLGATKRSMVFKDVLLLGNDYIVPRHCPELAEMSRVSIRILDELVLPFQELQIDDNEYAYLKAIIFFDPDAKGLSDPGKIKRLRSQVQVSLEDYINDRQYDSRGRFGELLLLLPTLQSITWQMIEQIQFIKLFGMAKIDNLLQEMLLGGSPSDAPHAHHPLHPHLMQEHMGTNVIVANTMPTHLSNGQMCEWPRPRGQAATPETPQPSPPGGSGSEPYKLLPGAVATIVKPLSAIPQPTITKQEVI
ALR inh: blocks human ALR sulfhydryl oxidase activity | P55789 | inhibition, % (test concentration not listed) | actives 3.8% (n = 290,000) | purified ALR, DTT oxidation, H2O2 HRP-luminol luminescence;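 active = mean and each replicate at 75% or more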;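 note: stock transfer was 7.5 nL into about 7.5 µL; 0% = neutral wells and 100% = wells with inactivated enzyme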
Beta2AR agonist: human beta-2 adrenergic receptor agonism by FAP; actives 0.43% (n = 340,000); P07550; Am2.2-beta2AR cells, FAP receptor internalization, flow cytometry; reference of the scale not given here; response, % (no concentration beside the values); AID 504454;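 active = response above a set limit, near 3 SD of response in nonfluorescent compounds, cut at about 42% in these data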;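 note: stock transfer was 100 nL into about 11 µL; a reference agonist was the positive control; negative values mostly stem from fluorescent compounds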
FGF22 binding: binders of recombinant human FGF22 by thermal shift; Q9HCT0; SYPRO orange fluorescence; percent of sucrose octasulfate shift, DMSO zero; calls only at 9.99 µM; actives 1.5% (n = 340,000); AID 651658;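 active = melting point raised past a set limit in the mean and every replicate; three in four hits are not shown here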
Target sequence (Q9HCT0 whole entry, looked up): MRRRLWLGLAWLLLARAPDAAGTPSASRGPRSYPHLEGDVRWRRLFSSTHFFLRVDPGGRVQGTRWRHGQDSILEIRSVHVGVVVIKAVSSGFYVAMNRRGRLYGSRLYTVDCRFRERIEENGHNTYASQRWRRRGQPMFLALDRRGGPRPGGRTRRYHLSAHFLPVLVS
Ecoli growth: E. coli growth inhibition. Escherichia coli growth, OD600, 23 h; active compounds read low. OD600 absorbance (no concentration beside the values). AID 1053175. actives 0.21% (n = 330,000);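 active = OD600 absorbance below the run mean of sample wells minus 3.6 SD, in any replicate, cut at about 0.56 in these data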;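 note: stock transfer was 300 nL into about 60 µL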
LANA-H2A inh: blocks KSHV LANA binding to histone H2A/H2B. AID 2629. inhibition, % (test concentration not listed). Q9QR71. cell-free LANA-H2A/H2B peptide, fluorescence polarization. actives 0.6% (n = 320,000); in the data active = inhibition mostly above about 10%, no sharp cut-off; inactive = mostly below about 6.7%;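 note: stock transfer was 7.5 nL into about 10 µL; 0% = median of vehicle wells and 100% = median of positive control wells; one replicate is shown; the record names a cut of 25% in any replicate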
UCH37 inh: blocks the human deubiquitinase UCH37 | inhibition, % (no concentration beside the values) | actives 0.33% (n = 330,000) | Q9Y5K5 | purified proteasome/UCH37, Ub-AMC cleavage fluorescence | AID 588478;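 active = mean of two replicates above 20%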;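 note: 0% = compound-free wells with enzyme and 100% = wells lacking proteasome; stock transfer was 100 nL into about 20 µL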
Target sequence (Q9Y5K5 whole entry, looked up): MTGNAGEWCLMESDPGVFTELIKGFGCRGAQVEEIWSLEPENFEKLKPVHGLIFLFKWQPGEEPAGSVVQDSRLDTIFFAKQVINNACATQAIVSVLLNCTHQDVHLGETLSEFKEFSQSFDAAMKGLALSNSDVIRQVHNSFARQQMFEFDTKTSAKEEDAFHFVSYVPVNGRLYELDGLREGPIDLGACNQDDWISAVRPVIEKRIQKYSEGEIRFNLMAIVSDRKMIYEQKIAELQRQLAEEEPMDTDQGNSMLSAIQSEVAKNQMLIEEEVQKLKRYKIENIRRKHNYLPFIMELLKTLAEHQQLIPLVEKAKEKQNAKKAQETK
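Material: Human UCH37 enzyme supplied as purified proteasome complex | Schedule: 30 min preincubation with enzyme, 25 min cleavage at room temperature | Detection: AMC fluorescence 355/460 nm | Measure: % inhibition of Ub-AMC cleavage fluorescence | Controls: Wells without proteasome as full block, compound-free enzyme plus substrate as uninhibited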
* = called active by the depositor; i = inactive; x = no result given.

SMILES	HNF4A DNA FP	ALR inh	Beta2AR agonist	FGF22 binding	Ecoli growth	LANA-H2A inh	UCH37 inh
O=C(CCCn1c(=O)[nH]c2ccccc2c1=O)N1CCN(c2ccccn2)CC1	1.5	-0.8	-12.9	i	0.719	-4.4	4.8
Cc1ccc(OCC(=O)Nc2oc(-c3ccccc3)c(-c3ccccc3)c2C#N)cc1	1.2	-3.0	-4.8	x	0.733	0.3	-2.0
Cc1ccc(CNC(=O)C2CCC(=O)N(Cc3cccc(C(F)(F)F)c3)C2)o1 (centres undefined)	-0.1	-2.6	3.4	i	0.695	-3.1	-1.0
Cc1cc(C(=O)NNC(=O)c2ccc(NC(=O)CC#N)cc2)c(C)o1	-1.8	3.2	-1.7	i	0.717	6.4	2.5
N#CCCCSc1nnc(Cc2ccc3c(c2)OCO3)o1	-1.0	-0.7	2.3	x	0.726	-0.5	4.8
COc1ccc(/C=C2\SC(=S)N(C(C(=O)O)c3ccccc3)C2=O)c(OC)c1 (centres undefined)	27.8	58.8	-1.3	i	0.664	-6.9	7.4
Nc1scc(-c2ccncc2)c1Cl	-5.1	98.8*	-5.3	x	0.717	-2.0	3.7
CC1=C(C#N)C(Nc2cc(C)ccn2)(C(F)(F)F)C(=O)N1 (centres undefined)	-1.9	x	-0.1	x	0.655	-4.0	0.7
O=C(CCCN1C(=O)c2cccc3cccc(c23)C1=O)NCc1cccnc1	0.1	-4.7	0.8	i	0.695	-0.5	-99.1
O=S(=O)(c1ccc(OCC(O)CNC23CC4CC(CC(C4)C2)C3)c(Cl)c1)N1CCOCC1 (centres undefined)	-0.5	x	6.9	i	0.683	x	2.0
Cc1ccc(SCCn2nc(C(=O)O)c3ccccc3c2=O)cc1	-0.7	-15.9	2.5	i	0.737	1.8	1.1
CC(C)(CNC(=O)CC1C(=O)NCCN1Cc1cccc(F)c1F)N1CCOCC1 (centres undefined)	1.5	-15.9	-3.0	i	0.67	6.7	-3.5
CC(C)OC(=O)c1cccc(C(=O)Oc2ccccc2)n1	4.8	24.7	10.2	x	0.674	-20.6	0.0
Cc1oc(/N=C/c2ccccc2)c(C#N)c1C	-1.8	-2.2	-1.2	x	x	-3.7	x
COC(=O)c1ccc(NC(=O)CNS(=O)(=O)c2cccs2)cc1	0.5	-3.9	1.4	x	0.683	3.0	-3.1
O=C(NNC(=S)NC(=O)c1sc2ccccc2c1Cl)c1ccc(Cl)cc1	-1.8	98.4*	0.1	x	x	4.7	x
COC(=O)c1cc(C(=O)OCC(=O)NNC(=O)c2cccs2)cc([N+](=O)[O-])c1	3.8	10.9	1.1	i	0.684	2.5	1.3
O=C(NC(=S)Nc1cc(C(F)(F)F)ccc1N1CCOCC1)c1ccco1	0.4	0.9	-5.6	i	x	2.2	x
COc1ccccc1N1CCN(C(=S)NC(=O)/C=C/c2ccccc2)CC1	0.5	8.0	9.1	i	0.676	3.4	3.6
Nc1nc(SCC(=O)c2cc3ccccc3o2)n[nH]1	0.4	97.9*	5.4	x	0.664	4.4	1.6
O=C(C1CCC1)N1CCN(c2ccc(C(F)(F)F)cc2[N+](=O)[O-])CC1	-0.8	-6.8	10.5	i	0.7	-1.4	3.9
Cc1cccc(NC(=S)N(C)Cc2cn(C)c3ccccc23)c1	3.3	-0.5	-4.7	i	0.647	-1.2	2.4
COC(=O)c1ccc(S(=O)(=O)N2CCCN(Cc3cccc(Br)c3F)CC2)n1C	-1.7	x	-5.2	i	0.604	-3.0	3.8
O=C(c1ccc(SCc2ccco2)c([N+](=O)[O-])c1)N1CCOCC1	-1.7	2.3	-0.6	i	0.705	4.1	4.4
CCOc1ccccc1-c1n[nH]c(=S)o1	-0.6	37.2	-11.6	x	0.71	5.0	-5.6

Further records.
SMILES	HNF4A DNA FP	ALR inh	Beta2AR agonist	FGF22 binding	Ecoli growth	LANA-H2A inh	UCH37 inh
Cc1n[nH]c(C)c1CCNC(=O)C1CCC(=O)N(Cc2ccccc2F)C1 (centres undefined)	-3.4	-4.6	10.6	i	0.713	3.9	0.9
COc1cccc(CNC(=O)[C@H](CCSC)NC(=O)N2CCn3c2nc2ccccc23)c1	3.4	-8.2	-3.7	i	0.661	5.0	0.9
Cc1ccccc1C1c2[nH]c3ccccc3c2C[C@H]2C(=O)N(c3ccccc3C(=O)NCCN3CCOCC3)C(=O)N12 (some centres undefined)	0.9	3.9	0.7	i	0.793	1.2	-3.1
O=C(CN1C(=O)C2C3C=CC(C3)C2C1=O)Nc1ccc2c(c1)OCCO2 (centres undefined)	1.0	-2.2	-5.7	x	0.677	4.4	1.5
CC(C)CCN1C(=O)c2ccc(C(=O)OCC(=O)N(CC(C)C)C3CCS(=O)(=O)C3)cc2C1=O (centres undefined)	-2.8	-6.9	-9.7	i	0.701	-3.9	3.4
Cc1cccc(OCc2nnc(SCC(=O)OC3CCCCC3)o2)c1	-3.1	-10.7	4.0	x	0.699	-0.9	2.5
CCN(CC(=O)NCc1ccc(Cl)cc1)C(=O)CSc1ccc(Br)cc1	6.0	-0.6	-7.8	i	0.64	6.1	4.8
CC(C(=O)N1CCc2ccccc21)N1CCN(c2cccc(C(F)(F)F)c2)CC1 (centres undefined)	0.5	6.1	8.4	i	0.708	5.1	1.4
Cc1ccc(S(=O)(=O)N2CCCCC2)cc1C(=O)N(C)CCOc1ccccc1	0.0	1.0	-10.1	i	0.692	-0.8	0.5
O=C(COC(=O)c1ccccn1)Nc1cccc(Cl)c1	-1.1	-1.9	12.7	x	0.71	2.5	3.0
CCC(C)(O)c1[nH]c2ccc(C#N)cc2c1C (centres undefined)	-4.6	4.6	0.6	i	0.745	-1.1	7.8
Cc1c(Cl)cccc1NC(=S)NCc1cccs1	-1.0	-7.5	2.9	i	0.675	-1.3	-1.2
Cc1ccc(-c2nc(N)sc2CC(=O)OCC(=O)NC2CCCC(C)C2C)cc1 (centres undefined)	0.9	4.7	-2.8	i	0.732	-1.5	1.8
COc1ccc(OC)c(CNC(=O)C2CCCN(S(=O)(=O)N3CC(C)CC(C)C3)C2)c1 (centres undefined)	0.4	3.6	-1.1	i	0.673	-3.7	0.1
CC(C)C(C(=O)Nc1nccs1)c1ccc(Cl)cc1 (centres undefined)	-2.1	-6.2	3.9	i	0.654	1.2	-0.9
COc1ccc(C(=O)Nc2ccnn2C2CCN(C(=O)c3cc(C)on3)CC2)cc1	0.1	-6.9	-2.8	i	0.742	-0.7	2.3
CC1CCN(CC(=O)Nc2ccccc2Sc2ccccc2)CC1	4.2	-0.6	6.0	x	0.619	-0.2	4.0
COc1cc(/C=N\NC(=O)C(C)(C)O)ccc1OC/C=C/c1ccccc1	1.6	-7.7	-13.0	i	x	3.7	x
CC(C)OCCCNCC(O)c1ccccc1 (centres undefined)	-0.6	-22.4	-6.1	x	0.731	2.1	0.6
COCCNC(=O)Cn1cc(C(=O)c2cccs2)c2ccccc21	-2.5	-4.1	0.7	x	0.753	7.1	-4.2
COc1ccc(CNC(=O)C2CCCN2S(=O)(=O)c2ccc(Cl)cc2)cc1 (centres undefined)	-3.4	-5.0	-5.8	x	0.717	4.8	4.7
O=C(COc1nsnc1N1CCOCC1)N1CCOCC1	-3.3	x	-3.8	x	0.671	x	3.8
COc1ccc(NC(=O)N(O)C2(C#N)CCCCC2)cc1	-5.7	x	-2.3	i	x	x	x
Cc1ccc(/C=N/NC(=O)CSc2nnc(-c3ccc(Cl)cc3)n2-c2ccccc2)o1	-1.7	x	-2.1	x	x	-6.4	x
Cc1ccc(S(=O)(=O)N2CCN(C(=O)CSc3ccc(F)cc3)CC2)cc1	0.1	-0.6	13.2	x	0.678	-5.3	1.6

Further compounds:
SMILES	HNF4A DNA FP	ALR inh	Beta2AR agonist	FGF22 binding	Ecoli growth	LANA-H2A inh	UCH37 inh
Cc1ccc(C23CC4CC(CC(CC(=O)NC(C)(C)CO)(C4)C2)C3)cc1	0.9	x	0.8	i	0.672	2.5	0.3
COc1ccccc1-c1noc(-c2cccs2)n1	3.0	7.0	-3.6	i	0.674	6.6	5.8
Cn1c(=O)[nH]c(=O)c2[nH]c(CO)nc21	1.1	x	7.8	i	x	x	x
Cc1cc2ccccn2c1C(=O)Nc1cccc(Cl)c1	-3.2	12.8	-0.5	i	0.639	-6.0	-117.6
Cc1c(Cl)cccc1NC(=O)CC1Sc2ccccc2NC1=O (centres undefined)	-2.8	-4.7	-2.8	i	0.692	-2.0	5.4
CCOc1ccc(CN(C)C(=O)CNC(=O)c2ccc3ccccc3c2)cc1OC	2.4	-0.2	-0.4	i	0.643	3.0	0.7
CC(=O)Nc1ccc(NC(=O)C(C)OC(=O)C(C)SCC(=O)Nc2ccc(C)cc2)cc1 (centres undefined)	1.8	6.9	4.0	i	0.695	4.7	-3.1
CNC(C)c1cc(OC)ccc1OC (centres undefined)	1.1	x	-7.5	x	0.683	-0.4	0.3
CCOC(=O)c1ccc(NC(=O)CC2S/C(=N/N=C/c3c[nH]c4ccccc34)NC2=O)cc1 (centres undefined)	-0.4	-4.5	5.2	x	x	-6.1	x
COc1ccc(CNC(=O)C2(c3ccc(Cl)cc3)CC2)cc1	-1.6	-5.7	1.2	x	0.686	2.2	2.7
Cc1noc(C)c1NC(=O)Nc1ccc2c(c1)C(=O)N([C@H](C)CO)C[C@H](C)[C@@H](CN(C)S(=O)(=O)c1ccccc1)O2	-2.3	0.9	-1.9	i	x	8.7	0.2
CC(=O)c1sc(NC(=O)CCCc2nc3ccccc3c(=O)[nH]2)nc1-c1ccccc1	3.7	-1.1	3.4	i	0.707	x	3.4
COc1ccc(C(=O)NC(=S)N2CCN(c3ccccc3OC)CC2)cc1	-3.1	x	-3.3	i	0.649	-7.6	1.8
Cc1ccc(C(=O)NCC(=O)NCc2ccc(Cl)cc2)s1	0.4	-2.4	-7.9	i	0.69	4.7	2.5
Cc1oc2c(C)c3oc(=O)c4c(c3cc2c1C)CCC4	-0.9	x	-5.4	x	0.722	x	3.2
COCCCn1c(Cc2ccccc2)nnc1SCC(=O)N1CCCCC1	0.3	0.2	-5.8	x	0.699	79.4*	3.6
S=c1[nH]nc(COc2ccc(Cl)cc2Cl)n1-c1ccccc1	2.2	83.8*	-4.8	i	0.642	2.0	1.9
COC(=O)c1ccc(-c2nn(C)c(=O)c3ccccc23)cc1	-2.0	-20.1	-1.8	i	0.73	0.0	7.6
CCOC(=O)c1cnc2c(C)c(Cl)ccc2c1N1CCOCC1	0.7	-7.9	-6.3	i	x	3.8	x
S=C(NCc1ccncc1)Nc1cccc(Cl)c1	-0.8	-2.3	29.5	x	0.637	-1.8	0.5
O=C(NC1CCCN(Cc2ccc(Cl)cc2)C1)c1ccnc(Cl)c1 (centres undefined)	0.4	x	-2.2	i	0.681	-2.4	2.9
Cc1ccc(NC(=S)NCC2CCN(C(C)c3ccccc3)C2)cc1C (centres undefined)	2.8	31.2	-1.1	x	0.648	3.9	0.7
CCOC(=O)Cn1c(=N)n(CCOc2ccc(Br)cc2)c2ccccc21	2.4	-25.8	16.3	i	0.691	-3.2	6.1
Cc1cc(C(=O)CSc2cccc[n+]2[O-])c(C)n1-c1ccc(Br)cc1	x	7.9	x	x	0.645	4.5	2.0
O=C(O/N=C\c1ccc(N2CCCCC2)c([N+](=O)[O-])c1)c1cccc(C(F)(F)F)c1	0.6	3.6	11.9	x	x	2.6	x
Cc1cccc(C)c1NC(=S)NN1CCN(C)CC1	2.0	-2.2	9.1	x	0.73	-3.4	0.2
O=C(Nc1ccc(-n2ccnc2P(=O)(O)c2ccccc2)cc1)c1ccccc1Br	-0.7	-20.2	-5.1	x	x	0.8	x
Cc1cccc(N2CCN(C(=O)c3ccc(Cl)c(NC4=NC5CS(=O)(=O)CC5S4)c3)CC2C)c1 (centres undefined)	2.0	44.5	11.3	i	0.689	0.5	2.0

3 compounds already listed, sorted by their value in LANA-H2A inh, rising.
canonical_smiles | LANA-H2A inh
Cc1cccc(N2CCN(C(=O)c3ccc(Cl)c(NC4=NC5CS(=O)(=O)CC5S4)c3)CC2C)c1 (centres undefined) | 0.5
Cc1ccc(C23CC4CC(CC(CC(=O)NC(C)(C)CO)(C4)C2)C3)cc1 | 2.5
Cc1ccc(C(=O)NCC(=O)NCc2ccc(Cl)cc2)s1 | 4.7

An excerpt, so the mix of outcomes need not match the whole.
